Bioassay records from PubChem BioAssay.
E coli growth: blocks Escherichia coli growth | OD600, 23 h; stronger effect = lower value | OD600 absorbance (concentration not given with the values) | hit rate 0.21% among 330,000 | AID 1053175;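 active = OD600 absorbance below the run mean of sample wells minus 3.6 SD, in any replicate, cut at about 0.56 in these data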;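 note: stock transfer was 300 nL into about 60 µL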
HNF4A DNA FP: change in binding of human HNF4 alpha to DNA; HNF4a-FITC DNA binding, fluorescence polarization, 1 h; P41235; activity change, % at 10 µM; hit rate 0.3% among 360,000; in the data active = activity change above about 30%, passing the limit was not always enough;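 note: controls were the assay level and a saturating level of protein; the project sought stronger binding though the title names inhibitors; some compounds called inactive have numbers as strong as hits; positive values seem to mean higher polarization but the record does not say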
Target sequence (P41235 whole entry, looked up): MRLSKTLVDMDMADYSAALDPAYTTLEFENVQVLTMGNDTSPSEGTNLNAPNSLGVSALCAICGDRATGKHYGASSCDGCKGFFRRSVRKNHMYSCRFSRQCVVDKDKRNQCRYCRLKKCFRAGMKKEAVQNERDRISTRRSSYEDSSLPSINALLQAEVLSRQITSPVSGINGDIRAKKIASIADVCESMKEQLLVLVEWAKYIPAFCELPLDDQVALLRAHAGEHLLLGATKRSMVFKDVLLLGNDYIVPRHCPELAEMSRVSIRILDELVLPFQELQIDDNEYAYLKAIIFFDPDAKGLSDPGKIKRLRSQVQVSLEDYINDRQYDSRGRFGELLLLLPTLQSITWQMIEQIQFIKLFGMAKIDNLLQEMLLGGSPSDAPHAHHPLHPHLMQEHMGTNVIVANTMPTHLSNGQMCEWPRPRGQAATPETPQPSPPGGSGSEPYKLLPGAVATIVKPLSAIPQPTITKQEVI
MLL AF4-AF9 inh: inhibitors of human MLL-AF4/AF9 interaction | AlphaScreen, biotin-AF4 peptide binding to FLAG-AF9 | inhibition, % at 10 µM | hit rate 0.47% among 350,000 | AID 651704;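 active = every replicate reaching a set inhibition limit, whatever the replicate mean, cut at about 25% in these data; inconclusive = mean inhibition reaches that limit but some replicates miss it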;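 note: 0% = plate neutral control median and 100% = total signal loss; the record names both 10 and 1 µM as test concentration; the first replicate is given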
Target sequence (P42568 whole entry, looked up): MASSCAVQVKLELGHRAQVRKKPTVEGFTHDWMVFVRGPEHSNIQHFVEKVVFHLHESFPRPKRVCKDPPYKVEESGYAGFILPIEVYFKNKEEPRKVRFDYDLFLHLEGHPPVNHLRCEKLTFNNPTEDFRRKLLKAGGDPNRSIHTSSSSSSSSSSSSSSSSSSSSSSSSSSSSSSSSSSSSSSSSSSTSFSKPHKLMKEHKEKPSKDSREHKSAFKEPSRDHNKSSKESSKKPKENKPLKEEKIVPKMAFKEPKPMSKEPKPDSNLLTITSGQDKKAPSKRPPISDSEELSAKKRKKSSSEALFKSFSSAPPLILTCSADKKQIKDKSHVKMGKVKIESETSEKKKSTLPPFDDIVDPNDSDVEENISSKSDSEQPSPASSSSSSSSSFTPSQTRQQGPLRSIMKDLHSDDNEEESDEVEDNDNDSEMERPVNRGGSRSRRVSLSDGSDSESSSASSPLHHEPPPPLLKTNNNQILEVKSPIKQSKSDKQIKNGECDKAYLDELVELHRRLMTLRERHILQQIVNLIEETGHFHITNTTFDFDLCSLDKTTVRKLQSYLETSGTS
Vif A3G: HIV-1 Vif–A3G interaction blockers – biochemical, TR-FRET, GST-Vif 1-94, biotin-A3G peptide, dose response retest, primary screen (AID 1117319). one-dose inhibition, %; IC50 in µM for titrated hits. TR-FRET GST-Vif / biotin-A3G peptide binding; higher % means a stronger effect; test concentration not given here; strong numbers were not always called active. hit rate 0.57% among 260,000;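 active = above the screen mean plus three standard deviations and confirmed in dose response; inconclusive = results disagree or hit not tested in dose response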;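 note: Vif residues 1-94 fused to GST binding biotinylated APOBEC3G peptide 110-148; 0% = full assay without inhibitor and 100% = GST in place of GST-Vif; retest series ran down from 100 µM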
RanGTP-Impb inh: inhibitors of RanGTP-importin-beta interaction, primary screen, biochemical, FRET, CFP-Ran, YFP-importin-beta, homogeneous; inhibition, % (no concentration beside the values); cell-free CFP-Ran/YFP-importin-beta FRET ratio; hit rate 1.1% among 300,000;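 active = most replicates above 15%; inconclusive = exactly half above 15%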;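 note: 0% = DMSO wells and 100% = Ran loaded with GDP instead of GTP; wells of about 40 µL received 100 nL stock; the first replicate is given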
UCH37 inh: human UCH37 deubiquitinating enzyme inhibition; hit rate 0.33% among 330,000; inhibition, % (no concentration beside the values); purified proteasome/UCH37, Ub-AMC cleavage fluorescence; Q9Y5K5;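 active = mean of two replicates above 20%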;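 note: 0% = compound-free wells with enzyme and 100% = wells lacking proteasome; stock transfer was 100 nL into about 20 µL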
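Schedule: 30 min plus 25 min, room temperature / Material: human UCH37 within purified proteasomes / Technique: AMC fluorescence intensity at 355/460 nm / Buffer or medium: pH 7.4 Tris-HCl (50 mM) with ovalbumin, ATP-MgCl2, DTT / Controls: wells without proteasome as full block, compound-free enzyme plus substrate as uninhibited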
FGF22 binding: shifts melting point of recombinant human FGF22. Q9HCT0. recombinant FGF22 thermal shift, SYPRO orange fluorescence; percent of sucrose octasulfate shift, DMSO zero. calls only at 9.99 µM. hit rate 1.5% among 340,000;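 active = melting point raised past a set limit in the mean and every replicate; inconclusive = no clear call; three in four hits are not shown here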
Active calls of the source: *.

Results for O=C(CN1C(=O)CSc2ccccc21)Nc1ccccc1C(=O)N1CCOCC1 ?
E coli growth: 0.7; HNF4A DNA FP: -1.1; Vif A3G: -4%; RanGTP-Impb inh: 0.4; UCH37 inh: 0.5

Results for Cc1nc(N)c(Cc2ccc(Cl)cc2Cl)c(N)n1 ?
E coli growth: 0.48*; HNF4A DNA FP: 1.2; MLL AF4-AF9 inh: -0.4; Vif A3G: 8%; RanGTP-Impb inh: inconclusive; UCH37 inh: 1.5; FGF22 binding: inactive

How did Cc1cc(C)n(Cc2ccc(C(=O)O)cc2)n1 do in these assays?
E coli growth: 0.69; HNF4A DNA FP: -1.1; MLL AF4-AF9 inh: 0.4; Vif A3G: -1%; RanGTP-Impb inh: 2.9; UCH37 inh: -2.8; FGF22 binding: inactive

How did CC1(C(=O)Nc2ccc(Cl)c(Cl)c2)CCN1CCc1ccccc1 (stereo not given) do in these assays?
HNF4A DNA FP: -2.0; MLL AF4-AF9 inh: -3.4; FGF22 binding: inactive

Results for CSc1nncc(=O)[nH]1 ?
E coli growth: 0.71; HNF4A DNA FP: -0.4; Vif A3G: -3%; RanGTP-Impb inh: 1.4; UCH37 inh: 4.5

How did CC(=O)Nc1ccc(NC(=O)C(C)OC(=O)c2ccc(OCc3c(C)noc3C)cc2)cc1 (stereo not given) do in these assays?
E coli growth: 0.73; HNF4A DNA FP: -2.4; Vif A3G: 5%; RanGTP-Impb inh: -2.7; UCH37 inh: 1.1

What do the screens show for `NCCCNC(=O)c1cc2ccccc2[nH]1`?
E coli growth: 0.74; HNF4A DNA FP: -1.4; Vif A3G: 18%; RanGTP-Impb inh: 1.0; UCH37 inh: -3.0

What do the screens show for `O=c1[nH]ncn1-c1cccc(C(F)(F)F)c1`?
E coli growth: 0.71; HNF4A DNA FP: -1.0; Vif A3G: 2%; RanGTP-Impb inh: 2.3; UCH37 inh: 3.8

What do the screens show for `O=S(=O)([O-])C/C(=C\c1ccc(Cl)cc1)c1cc[n+](CCO)cc1`?
E coli growth: 0.64; HNF4A DNA FP: -2.7; MLL AF4-AF9 inh: -0.9; Vif A3G: -11%; RanGTP-Impb inh: -2.1; UCH37 inh: 5.8; FGF22 binding: inactive

What do the screens show for `CC(C)(C)OC(=O)NCCc1nnc(SCc2ccccc2)o1`?
E coli growth: 0.67; HNF4A DNA FP: 4.8; MLL AF4-AF9 inh: -3.3; Vif A3G: -3%; RanGTP-Impb inh: 7.3; UCH37 inh: 3.3; FGF22 binding: inactive

What do the screens show for `CC1=C(C(=O)OCC(C)C)C(c2ccc(F)cc2)NC(=O)N1` (stereo not given)?
E coli growth: 0.67; HNF4A DNA FP: 0.5; Vif A3G: 3%; RanGTP-Impb inh: -1.7; UCH37 inh: 1.8

Results for COC(=O)C1=C(C)N(Cc2ccccc2)C(=S)N[C@H]1c1ccccc1 ?
HNF4A DNA FP: 0.9; MLL AF4-AF9 inh: -0.7; RanGTP-Impb inh: 2.4; UCH37 inh: 0.6; FGF22 binding: inactive

Results for CCC(NC(=O)OCc1ccccc1)C(=O)Oc1ccc2ccc(=O)oc2c1 (stereo not given) ?
E coli growth: 0.67; HNF4A DNA FP: 4.0; MLL AF4-AF9 inh: -1.9; Vif A3G: 3%; RanGTP-Impb inh: 21*; UCH37 inh: inactive; FGF22 binding: inactive

What do the screens show for `CCCn1c(SCC(=O)Nc2ccc3c(c2)OCO3)n[nH]c1=O`?
E coli growth: 0.66; HNF4A DNA FP: 2.9; MLL AF4-AF9 inh: -3.8; Vif A3G: -2%; UCH37 inh: 2.2; FGF22 binding: inactive

How did CSc1ccc(CN2CCC(C)(Oc3ccc(-n4ccnc4)cc3)C2)cc1 (stereo not given) do in these assays?
HNF4A DNA FP: 0.6; MLL AF4-AF9 inh: 18; FGF22 binding: inactive

What do the screens show for `O=C(CSc1nnc(CNc2cccc(Cl)c2)o1)OC1CCCCC1`?
E coli growth: 0.66; HNF4A DNA FP: -5.1; Vif A3G: 1%; RanGTP-Impb inh: -5.2; UCH37 inh: 2.9

How did CCOC(=O)c1[nH]c2ccc(Br)cc2c1NC(=O)CCN1CCC(C)CC1 do in these assays?
E coli growth: 0.71; HNF4A DNA FP: -1.0; Vif A3G: -3%; RanGTP-Impb inh: 6.4; UCH37 inh: 2.4

How did Cc1c(C(=O)NCc2ccccc2C(F)(F)F)sc(=O)n1Cc1cccc(C(F)(F)F)c1 do in these assays?
HNF4A DNA FP: -2.7; MLL AF4-AF9 inh: 1.4; FGF22 binding: inactive

How did CC(=O)c1cc(C#N)c(SCC(=O)C(C)(C)C)nc1C do in these assays?
E coli growth: 0.7; HNF4A DNA FP: -0.3; Vif A3G: 22%; RanGTP-Impb inh: -3.6; UCH37 inh: 3.8

Results for COC(=O)c1ccc(C(c2c(C)[nH][nH]c2=O)c2c(C)[nH][nH]c2=O)cc1 ?
E coli growth: 0.67; HNF4A DNA FP: 0.4; MLL AF4-AF9 inh: -25; Vif A3G: 5%; RanGTP-Impb inh: inconclusive; UCH37 inh: 3.4; FGF22 binding: inactive

The list goes on, starting with the last two of the part before.
How did CC(=O)c1cc(C#N)c(SCC(=O)C(C)(C)C)nc1C do in these assays?
E coli growth: 0.7; HNF4A DNA FP: -0.3; Vif A3G: 22%; RanGTP-Impb inh: -3.6; UCH37 inh: 3.8

Results for COC(=O)c1ccc(C(c2c(C)[nH][nH]c2=O)c2c(C)[nH][nH]c2=O)cc1 ?
E coli growth: 0.67; HNF4A DNA FP: 0.4; MLL AF4-AF9 inh: -25; Vif A3G: 5%; RanGTP-Impb inh: inconclusive; UCH37 inh: 3.4; FGF22 binding: inactive

What do the screens show for `CCOc1ccc(Oc2ccc(Cl)cc2NC(=O)C2=COCCO2)cc1`?
E coli growth: 0.67; HNF4A DNA FP: -0.9; MLL AF4-AF9 inh: 0.0; Vif A3G: 6%; RanGTP-Impb inh: 7.0; UCH37 inh: 3.5; FGF22 binding: inactive

Results for COc1cc([N+](=O)[O-])ccc1NC(=O)Nc1cnccn1 ?
E coli growth: 0.71; HNF4A DNA FP: -0.4; MLL AF4-AF9 inh: 1.3; Vif A3G: 1%; RanGTP-Impb inh: -0.6; UCH37 inh: 4.2; FGF22 binding: inactive

How did Cc1ccc(-c2nnc(SCC(=O)Nc3cccc(C(=O)N4CCOCC4)c3)n2C)cc1 do in these assays?
E coli growth: 0.7; HNF4A DNA FP: 4.3; Vif A3G: -3%; RanGTP-Impb inh: 1.6; UCH37 inh: 2.2

What do the screens show for `CCCCNCCCOc1cccc(Cl)c1Cl`?
E coli growth: 0.6; HNF4A DNA FP: -0.1; MLL AF4-AF9 inh: -0.7; Vif A3G: 0%; RanGTP-Impb inh: -0.9; UCH37 inh: 3.8; FGF22 binding: inactive

How did COc1cccc(NC(=O)N2CCCC2C(=O)NCc2ccccc2F)c1 (stereo not given) do in these assays?
E coli growth: 0.68; HNF4A DNA FP: 0.3; MLL AF4-AF9 inh: -1.9; Vif A3G: 6%; RanGTP-Impb inh: -5.3; UCH37 inh: 3.6; FGF22 binding: inactive

How did CC(=O)N1CCN(C(=O)c2cccc(S(=O)(=O)N3c4ccccc4CC3C)c2)CC1 (stereo not given) do in these assays?
E coli growth: 0.63; HNF4A DNA FP: 0.8; MLL AF4-AF9 inh: -0.4; Vif A3G: 9%; UCH37 inh: -0.5; FGF22 binding: inactive

Results for Cc1ccc(S(=O)(=O)N2CCOCC2)cc1NC(=O)C(c1ccc(Cl)cc1)C(C)C (stereo not given) ?
E coli growth: 0.63; HNF4A DNA FP: 2.6; MLL AF4-AF9 inh: 0.8; Vif A3G: 1%; UCH37 inh: 0.7; FGF22 binding: inactive

Results for CCc1nc(C)ccc1OCC(=O)NCCCN(C)C ?
E coli growth: 0.71; HNF4A DNA FP: -0.2; Vif A3G: 0%; UCH37 inh: 5.2

What do the screens show for `CCOc1ccc(S(=O)(=O)N/N=C(\C)c2ccc(OC)cc2OC)cc1`?
HNF4A DNA FP: -2.0; MLL AF4-AF9 inh: -1.3; Vif A3G: 2%; RanGTP-Impb inh: 0.1; FGF22 binding: inactive

How did O=[N+]([O-])c1ccc(S(=O)(=O)Nc2ccc(-c3ccc(N4CCCC4)nn3)cc2)cc1 do in these assays?
E coli growth: 0.66; HNF4A DNA FP: -2.2; MLL AF4-AF9 inh: -0.3; Vif A3G: 4%; RanGTP-Impb inh: inconclusive; UCH37 inh: 4.1; FGF22 binding: inactive

What do the screens show for `CC(OC(=O)CN1C(=O)c2ccccc2C1=O)C(=O)c1ccccc1` (stereo not given)?
E coli growth: 0.69; HNF4A DNA FP: -1.4; MLL AF4-AF9 inh: 5.1; Vif A3G: -1%; UCH37 inh: -0.2; FGF22 binding: inactive

Results for COC(=O)c1cccc(Nc2nc(-c3ccncc3)nc3ccccc23)c1 ?
E coli growth: 0.7; HNF4A DNA FP: 30; MLL AF4-AF9 inh: -0.1; Vif A3G: -16%; RanGTP-Impb inh: 4.4; UCH37 inh: -15; FGF22 binding: inactive

What do the screens show for `COc1cc(CNCc2cccnc2)ccc1OCC(=O)NC(C)(C)C`?
E coli growth: 0.66; HNF4A DNA FP: -1.5; MLL AF4-AF9 inh: 0.4; Vif A3G: 8%; RanGTP-Impb inh: 4.6; UCH37 inh: 2.4; FGF22 binding: inactive

How did COC(=O)CN1C(=O)Nc2ccc(Br)cc2C1c1ccccc1Cl (stereo not given) do in these assays?
E coli growth: 0.69; HNF4A DNA FP: -2.9; Vif A3G: 1%; RanGTP-Impb inh: 0.8; UCH37 inh: 3.6

How did CCc1ccc(CNC(=O)C2CCCN(c3nc4ccccc4o3)C2)cc1 (stereo not given) do in these assays?
E coli growth: 0.69; HNF4A DNA FP: -2.6; Vif A3G: 13%; RanGTP-Impb inh: -0.5; UCH37 inh: 1.8

How did O=C(COC(=O)c1ccccc1Br)NCC1CCCCC1 do in these assays?
E coli growth: 0.69; HNF4A DNA FP: 1.2; MLL AF4-AF9 inh: 6.0; UCH37 inh: 0.3

Results for Cc1cc(=O)oc(C)c1C(=O)N1CCc2c([nH]c3ccccc23)C1C(C)C (stereo not given) ?
E coli growth: 0.74; HNF4A DNA FP: -0.1; MLL AF4-AF9 inh: 7.6; Vif A3G: 4%; RanGTP-Impb inh: 4.8; UCH37 inh: -1.4; FGF22 binding: inactive

How did Fc1cccc(Cl)c1/C=N/Nc1ccccn1 do in these assays?
HNF4A DNA FP: 4.4; MLL AF4-AF9 inh: -0.7; Vif A3G: 7%; RanGTP-Impb inh: 4.7; FGF22 binding: inactive

How did Cc1ccc(/C=C(/NC(=O)c2ccccc2)C(=O)NC(Cc2c[nH]c3ccccc23)C(=O)O)cc1 (stereo not given) do in these assays?
E coli growth: 0.65; HNF4A DNA FP: 3.9; MLL AF4-AF9 inh: -25; RanGTP-Impb inh: -1.0; UCH37 inh: 5.1; FGF22 binding: inactive

How did CC(C)NC(=O)C1(N2C(=O)c3ccccc3C2=O)CCCC1 do in these assays?
E coli growth: 0.68; HNF4A DNA FP: 3.5; MLL AF4-AF9 inh: -6.4; Vif A3G: -3%; UCH37 inh: 2.1; FGF22 binding: inactive

How did CCCCN(C(=O)c1cc(S(=O)(=O)N2CCCCC2)ccc1Cl)c1c(N)n(CC(C)C)c(=O)[nH]c1=O do in these assays?
E coli growth: 0.69; HNF4A DNA FP: -2.3; MLL AF4-AF9 inh: 3.6; UCH37 inh: -1.7; FGF22 binding: inactive

Results for CSc1ccc(CCNC(=O)C2CCCN(c3nn4c(=O)cc(C)nc4s3)C2)cc1 (stereo not given) ?
E coli growth: 0.69; HNF4A DNA FP: -4.3; MLL AF4-AF9 inh: 0.1; RanGTP-Impb inh: -0.9; UCH37 inh: -1.0; FGF22 binding: inactive

Not all compounds are listed. The share of hits here may be higher or lower than overall.
